# Vaccinia mCherry: inhibitors of vaccinia virus infection (mCherry reporter signal); Vaccinia virus mCherry reporter infection, fluorescence; about a quarter of the inactives have no number; Potency, µM (highest dose often 36.5 µM), for inactives: top-dose activity change, negative = inhibition, usual class: inhibitors; hit rate 0.63% among 310,000; active = well fitted inhibition curve with a large enough effect; inconclusive = small, poorly fitted or top-dose-only effect; inactive = no such curve, though single readings can be large or run the other way; tested in A549 cells; further: nearly all actives have a fitted effect of over 35% in size; inactives centre near -10
# Vaccinia Venus: vaccinia inhibition (Venus reporter) | Vaccinia virus Venus reporter expression, fluorescence | Potency, µM (titrated, usually from 36.5 µM), inactives show top-dose activity change, negative = inhibition, usual class: inhibitors | hit rate 0.46% among 330,000; active means well fitted inhibition curve with a large enough effect; inconclusive means small, poorly fitted or top-dose-only effect; inactive means no such curve, though single readings can be large or run the other way; tested in A549 cells; further: nearly all actives have a fitted effect of over 30% in size; inactives centre near -10
# Active calls of the source: *; i = inactive; ? = inconclusive; nt = no result given; [ ] = remark or other dose. On the % scale 0 is the no-effect control and ±100 the full control effect; potency means the concentration at half of the fitted maximal effect.
SMILES,Vaccinia mCherry,Vaccinia Venus
Cc1c2cnn(CC(=O)Nc3cccc(C(F)(F)F)c3)c(=O)c2c(C)n1Cc1ccccc1Cl,-1.0%,-15.8%
COc1ccccc1NC(=S)NCc1ccccc1Cl,-1.4%,-21.2%
CCOC(=O)c1c(-c2cc(OC)c(OC)c(OC)c2)csc1NC(=O)c1ccccc1,-17.3%,-24.8%
C[N+]1(CC2COC3(CCCCC3)O2)CCCC1 (stereo not drawn),-4.4%,-11.6%
O=C(Nc1ccccc1)c1cccc(C(=O)Nc2ccccc2)n1,i,-6.8%
COc1ccc(C(=O)C2CCCN(C(=O)Cc3c(C)noc3C)C2)cc1OC (stereo not drawn),-1.3%,-3.8%
COc1ccc(S(=O)(=O)Nc2cccc(-c3ccc(N4CCCCCC4)nn3)c2)c(OC)c1,-21.3%,-16.3%
Cc1ccc(CNC(=O)[C@H]2O[C@@H](n3cnc4c(N)ncnc43)[C@H](O)[C@@H]2O)o1,12.1%,6.4%
Cc1ccc(C)c(NC(=O)C(=O)NCCc2csc(-c3cccc(F)c3)n2)c1,-21.4%,-7.9%
Cc1nc(C(F)(F)F)ccc1C(=O)N1CCCCCC1(C)C(=O)NCC(C)C (stereo not drawn),-7.7%,-11.7%
C/C=C(/C)C(=O)OC1c2c(ccc3ccc(=O)oc23)OC(C)(C)C1OC(C)=O (stereo not drawn),-28.8%,-19.2%
CCOC(=O)c1sc(NC(=O)CSc2nccn2C)nc1C,-1.0%,-15.6%
O=C(COC(=O)/C=C/c1ccc([N+](=O)[O-])cc1)Nc1ccc2[nH]c(=O)[nH]c2c1,-1.8%,-1.2%
COC(=O)c1ccc(NC(=S)NCCc2ccc(OC)cc2)cc1,i,-22.9%
Cc1nnc(SCC(=O)N2CCN(c3ccccc3)CC2)n1-c1ccccc1,i[1.46 µM],-18.2%
NC(=O)CSc1nnc(NC(=O)c2ccc3ccccc3c2)s1,-16.0%,-6.7%
Cc1c(NC(=O)Nc2ccc3c(c2)OCO3)c(=O)n(-c2ccccc2)n1C,-13.0%,-6.6%
COc1ccc(C)cc1N(C(=O)COc1ccccc1)c1nc2ccccc2s1,-18.9%,-12.5%
COc1ccccc1C(=O)c1cc2ccc(O)cc2oc1=O,-18.1%,-16.5%
CCc1nc2ccc(C(=O)NCCNC(C)=O)cn2c1N(C)Cc1ccc(OC)cc1,-2.4%,-8.5%
CCN1CCC(NC(=O)Nc2cc(Cl)ccc2OC)CC1,i,-26.1%
O=C(CN(Cc1ccccc1F)C(=O)Cn1nnc(-c2cccs2)n1)NC1CCCCC1,-13.8%,-14.4%
CCCCCCCCn1c(=O)c(C(=O)OCC)c(O)c2ccccc21,-14.8%,-10.2%
CC(=O)Nc1ccc(-c2csc(NC(=O)C3CCN(S(=O)(=O)c4cccs4)CC3)n2)cc1,-0.1%,-25.5%
CC1Sc2ccc(S(=O)(=O)NCCc3ccc(S(N)(=O)=O)cc3)cc2NC1=O (stereo not drawn),i,-2.3%
CCCCCCCCN1C(=O)[C@H](CC(=O)N2CCN(C(=O)C3CC3)CC2)C[C@@]2(C(=O)OC)CC(C)(C)CC=C12,?,?
O=C(NNS(=O)(=O)c1ccccc1)c1ccc(F)cc1,i,-2.0%
Cc1c(NC(=O)C2(c3ccccc3)CCCC2)c(=O)n(-c2ccccc2)n1C,-9.7%,-4.5%
COc1ccc(/C=C(\NC(=O)c2ccc([N+](=O)[O-])cc2)C(=O)NCCN2CCOCC2)cc1,0.2%,-11.2%
COc1cc(CC(=O)Nc2cccc(C(F)(F)F)c2)cc(OC)c1OC,-18.7%,-16.0%
COC(=O)[C@]12CCCCC=C1N(Cc1cccc3ccccc13)C(=O)[C@H](CC(=O)NCc1ccc(C)o1)C2,28.0%,-2.0%
Cc1cc(=O)[nH]c2nnc(SCC(=O)N3CC(C)OC(C)C3)n12 (stereo not drawn),-13.8%,6.6%
Cc1ccc(NS(=O)(=O)c2ccc(C(=O)OCC(=O)NCC3CCCO3)cc2)cc1 (stereo not drawn),-5.2%,-10.8%
COc1ccc(C(=O)NC(=S)Nc2ccccc2[N+](=O)[O-])cc1OC,-22.7%,-18.2%
Cc1cccc2cc(CN(CC3CCCO3)C(=O)c3cccnc3)c3nnnn3c12 (stereo not drawn),-1.1%,4.7%
CCC(=O)N1CCN(c2ccc(NC(=S)NC(=O)c3cc4ccccc4o3)cc2)CC1,-18.5%,-18.8%

# Four entries from above, with each value named.
Cc1c(NC(=O)C2(c3ccccc3)CCCC2)c(=O)n(-c2ccccc2)n1C
  Vaccinia mCherry: -9.7%	Vaccinia Venus: -4.5%

Cc1cc(=O)[nH]c2nnc(SCC(=O)N3CC(C)OC(C)C3)n12 (stereo not drawn)
  Vaccinia mCherry: -13.8%	Vaccinia Venus: 6.6%

COC(=O)[C@]12CCCCC=C1N(Cc1cccc3ccccc13)C(=O)[C@H](CC(=O)NCc1ccc(C)o1)C2
  Vaccinia mCherry: 28.0%	Vaccinia Venus: -2.0%

O=C(NNS(=O)(=O)c1ccccc1)c1ccc(F)cc1
  Vaccinia mCherry: i	Vaccinia Venus: -2.0%

# (further entries)
SMILES,Vaccinia mCherry,Vaccinia Venus
CC(=O)Nc1ccc(S(=O)(=O)N(CCc2ccccc2)CC(=O)N/N=C/c2ccc(C(=O)O)cc2)cc1,i,-4.1%
COc1ccccc1N1CC(C)C(=O)NC1=S (stereo not drawn),-9.4%,-11.0%
Cc1ccc(-c2csc3ncnc(SCC(=O)O)c23)cc1,i,11.2%
CCCc1ccc(-c2cc(C(=O)N/N=C/c3ccc([N+](=O)[O-])o3)c3ccccc3n2)cc1,?,?
O=C(Cn1c(=O)oc2cc(S(=O)(=O)N3CCCC3)ccc21)NC1CCCc2ccccc21 (stereo not drawn),14.7%,-3.9%
COc1ccccc1NC(=O)/C(=C\c1cccnc1)NC(=O)c1ccc(C)cc1,-8.6%,-8.1%
Nn1c(C2CCC2)nc2ccccc2c1=O,-1.6%,-1.7%
Cc1nc2sccn2c(=O)c1S(=O)(=O)NCc1ccc(F)cc1,-6.3%,-1.3%
CC(C)(C)NS(=O)(=O)c1ccc(NC(=O)CS(=O)(=O)Cc2ccccc2)cc1,-27.5%,-24.3%
NC1=NC(c2ccc(F)cc2)n2c(nc3ccccc32)N1 (stereo not drawn),i,-9.8%
C[C@H](CO)N1C[C@H](C)[C@@H](CN(C)S(=O)(=O)c2cccs2)Oc2c(NC(=O)NC3CCCCC3)cccc2C1=O,i,-29.3%
COc1ccc(CCNC(=O)c2cnc3ccc(C)cn3c2=O)cc1,-18.3%,-12.6%
COc1ccc2c(c1)c(CC(=O)Nc1cccc(S(N)(=O)=O)c1)c(C)n2C(=O)c1ccc(Cl)cc1,-8.2%,-16.0%
Cn1cnc2cc(NCc3cccs3)ccc21,i,-4.4%
CCN(c1ccccc1)S(=O)(=O)c1ccc(Cl)c(NC(=O)Nc2ccc(Cl)cc2C#N)c1,11.2µM*,10µM*
Cc1cc2ccccc2n1CCNC(=O)Cc1ccccc1,i,-1.4%
COc1ccc(OC)c(NC(=O)C2CCCN(S(=O)(=O)c3cccc4nonc34)C2)c1 (stereo not drawn),i,-5.1%
CSc1cccc(CN2CCC(CO)(Cc3ccccc3)CC2)c1,-16.3%,-4.9%
O=C(O)CCCCCCCCCC(=O)c1cccs1,nt,-15.0%
O=C(Nc1ccc([N+](=O)[O-])cc1)NN1CCCCCC1,-26.1%,-21.9%
Cc1cc(Oc2ccc(-c3ccccc3)cc2)nc(N2CCOCC2)n1,nt,2.4%
CCn1c(SCC(=O)NC2CC2)nnc1-c1ccc(F)cc1,i,-9.5%
Cc1ccnc(NC(c2ccsc2)c2ccc3ccc(C)nc3c2O)c1 (stereo not drawn),-20.5%,-19.8%
Cc1cc(C)nc(SCC(=O)Nc2ccc(Br)cn2)n1,nt,-6.6%

# A different layout for part of the listing above.
SMILES	Vaccinia mCherry	Vaccinia Venus
CSc1cccc(CN2CCC(CO)(Cc3ccccc3)CC2)c1	-16.3%	-4.9%
CCN(c1ccccc1)S(=O)(=O)c1ccc(Cl)c(NC(=O)Nc2ccc(Cl)cc2C#N)c1	11.2µM*	10µM*

# More records follow.
SMILES,Vaccinia mCherry,Vaccinia Venus
CCC(C)NC(=O)c1ccccc1NC(=O)/C(=C/c1ccc(OC)cc1)c1ccccc1 (stereo not drawn),-8.8%,-0.8%
Cc1nnc2c(N3CCN(c4ccccc4F)CC3)nc3ccc(C(=O)c4ccccc4)cc3n12,-7.3%,-4.5%
O=C(COc1ccc([N+](=O)[O-])cc1)NNC(=O)C1COc2ccccc2O1 (stereo not drawn),i,-6.4%
Cc1ccc(CSC2=NS(=O)(=O)c3ccccc32)cc1,?,?
O=C1ON=C(c2ccccc2)/C1=C/c1ccco1,-18.0%,15.6%
Cc1ccc(C#N)c(SCCN2CCCCC2)n1,-14.9%,-1.8%
Cc1ncc2c(c1CNC(=O)CN1CCCC1)CCN(C(=O)c1ccc(F)cc1F)C2,-7.2%,12.7%
Fc1ccccc1COc1ccc(-c2nnn(Cc3ccccc3F)n2)cc1,i,-6.2%
CCN(CC)C(=O)C1=C(C)N(Cc2ccc(F)cc2)C(=O)C(CC(=O)NC2CCCC2)C1 (stereo not drawn),-12.5%,-14.7%
CC(C)c1ccc(NC(=S)NNC(=O)c2cccs2)cc1,-6.5%,-6.9%
CCOC(=O)c1c(NC(=O)COc2ccc(Cl)cc2C)sc2c1CCCCC2,i,-13.5%
CCS(=O)(=O)N1CCC(C(=O)NCc2ccc(F)cc2Cl)CC1,-10.7%,-0.4%
CCN(CC)S(=O)(=O)c1cc(NC(=O)COC(=O)c2ccc(NC(=O)CC#N)cc2)ccc1C,-11.5%,-2.8%
O=C(C1CC(c2ccccc2O)=NO1)N1CCCC1 (stereo not drawn),-11.1%,-11.2%
CCC[C@H]1CN(c2ccccc2)C(=O)[C@@H]1CC(=O)Nc1ccc(OC)cc1,-7.9%,-16.4%
CC12C=CC3(O1)C(C(=O)N1CCCOC13)C2C(=O)O (stereo not drawn),5.5%,-1.8%
C[C@H](N)CN1CCc2ccc(Br)cc21,-11.5%,-19.2%
Cc1ccc(C(=O)NN(CCC(=O)NC(C)(C)C)C2=NS(=O)(=O)c3ccccc32)cc1,-13.1%,-5.4%
O=C(C1CCC(CNS(=O)(=O)c2ccc(Br)s2)CC1)N1CCN(c2ccccc2)CC1 (stereo not drawn),-15.9%,-13.3%
O=C1NC(Cc2ccccc2)c2nc3ccc(Br)cc3c(=O)n2-c2cc3ccccc3cc21 (stereo not drawn),i,-19.8%
COc1cc(NC(=O)C2CCN(S(=O)(=O)Cc3ccccc3)CC2)c(OC)cc1Cl,-7.6%,-0.8%
CCCOC(=O)Cn1cnc2scc(-c3ccc(C)cc3)c2c1=O,i,-18.4%
COc1ccc(S(=O)(=O)N2CCC(N3CCN(Cc4ccccc4)C(=O)C3=O)CC2)cc1,-12.7%,-7.6%
CC(=O)N=C1SC2CS(=O)(=O)CC2N1c1ccccc1Cl (stereo not drawn),nt,?
Cc1cc(C)c(NC(=O)CN(C)S(=O)(=O)c2ccc3c(c2)c(=O)n(C)c(=O)n3C)c(C)c1,-23.6%,-25.2%
O=C(NCCN1CCc2ccccc2C1)Nc1ccc(F)cc1,-14.7%,-5.2%
CCCS(=O)(=O)N1CCCC(c2nc(-c3ccc(OC)cc3)no2)C1 (stereo not drawn),-18.3%,-12.7%
CN(Cc1ccc2ccccc2c1)C(=O)c1ccc(C(F)(F)F)cc1,-28.2%,4.3%
COc1ccccc1NC(=O)Cn1nnc(-c2ccccc2NS(=O)(=O)c2ccccc2)n1,?,-28.6%
CCc1nnc(NC(=O)C2Cc3ccccc3CN2S(=O)(=O)CC)s1 (stereo not drawn),-10.7%,4.8%
Cc1nc2[nH]onc2c2nccc(=O)c12,-9.9%,-6.0%
CC(=NC1CCCC1)c1c(C)[nH]n(-c2nc3ccccc3s2)c1=O,-22.9%,-18.6%
CCCn1c(CCC(=O)Nc2cc(OC)cc(OC)c2)nc2cccnc21,-13.3%,-8.0%
O=C(CCc1c[nH]c2ccccc12)N=Nc1c(O)[nH]c2ccccc12,-29.5%,-12.8%
O=C(CSC(=S)N1CCCCC1)Nc1ncc2c(n1)CC(c1ccco1)CC2=O (stereo not drawn),-11.9%,-13.0%
COC(=O)C1=C(c2ccc(OC)c(OC)c2)C[C@@H]2CC[C@H]1N2C(=O)NC(C)C,-10.9%,-3.9%
Cc1cccc(S(=O)(=O)NCCC(=O)OCC(=O)Nc2ccc(C#N)cc2)c1,i,-21.7%
COCCCNC(=O)C1CC(=O)N(CCc2ccccc2)C1 (stereo not drawn),i,-2.1%
O=C(Nc1ccccc1N1CCCC1)c1ccc(Cl)c(S(=O)(=O)N2CCOCC2)c1,i,-22.4%
COC(=O)c1ccccc1S(=O)(=O)N1CCC(NC(=O)C(Cc2cccc(OC)c2OC)NC(C)=O)CC1 (stereo not drawn),10.8%,5.9%
CC(C)n1c(N2CCN(C(=O)NCc3ccccc3)CC2)nc2ccccc21,-25.5%,-7.5%
CC(=O)Oc1ccc2c(c1)C(=O)CCCCCC(=O)O2,i,-16.9%
COC(=O)c1cc(NC(=O)c2ccc(C)cc2)c(=O)oc1C,i,-11.4%
COc1cc2c(cc1OC)/C(=C/C(=O)c1ccccc1F)NCC2,-2.6%,-16.4%
COc1ccc(OC(C)C(=O)Nc2cccc(OC)c2)cc1 (stereo not drawn),-15.4%,-9.2%
Cn1c(N)c(C(=O)COC(=O)c2cc(C3CC3)nc3ccccc23)c(=O)n(C)c1=O,i,-28.2%
Cc1ccc(NC(=O)c2cc(-c3ccc4c(c3)OCO4)on2)cc1C,-11.2%,-13.0%
O=C(CCCCl)OCc1cn(-c2ccc(Cl)cc2)nn1,4.7%,4.3%
COc1ccc(C(CNC(=O)c2ccc(Br)o2)N2CCN(C)CC2)cc1 (stereo not drawn),-14.8%,-5.8%

# Screens from PubChem.

# No enrichment for hits. About 0.82% of those tested had a hit in this group.
